# SARS PLP yeast = SARS-CoV PLP inhibition in yeast; Potency, µM (highest dose often 32.9 µM), without a hit: at the highest dose activity, positive = growth rescue; 0.19% of 330,000 active; S. cerevisiae expressing SARS-CoV PLpro, growth rescue; control for the full effect not named in the record; active means well fitted rising curve with a large enough effect; inconclusive means small, poorly fitted or top-dose-only effect; inactive means no such curve, though single readings can be large or run the other way; also: 0% is about no effect; nearly all actives have a fitted effect of over 55% in size; growth read by luminescence after 48 h
# Cruzain noTriton = cruzain (T. cruzi) inhibition without detergent; P25779; purified cruzain, Z-FR-AMC fluorescence, no detergent; Potency, µM, without a hit: max response, negative = inhibition, actives largely listed as inhibitors; 2.3% of 200,000 active;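 also: plate controls were enzyme without inhibitor for no effect and buffer without enzyme for full effect; nearly all actives have a fitted effect of over 40% in size; top concentration of the series not given in the record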
# Target sequence (P25779 123-467 limits assumed): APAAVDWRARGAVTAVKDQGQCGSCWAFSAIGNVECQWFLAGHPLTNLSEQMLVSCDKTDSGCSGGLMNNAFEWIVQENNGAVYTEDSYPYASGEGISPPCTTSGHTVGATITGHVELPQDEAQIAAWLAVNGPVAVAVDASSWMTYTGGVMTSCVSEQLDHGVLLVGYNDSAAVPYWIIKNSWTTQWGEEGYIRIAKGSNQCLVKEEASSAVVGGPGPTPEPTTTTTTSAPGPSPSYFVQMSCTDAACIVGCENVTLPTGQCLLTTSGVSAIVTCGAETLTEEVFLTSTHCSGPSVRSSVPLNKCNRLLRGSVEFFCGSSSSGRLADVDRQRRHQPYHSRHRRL
#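 Purified cruzain at 1.5 nM, pre-incubated 15 min with compound at room temperature in 100 mM sodium acetate pH 5.5, 5 mM DTT, 0.00005% Triton X-100. Reaction started with 2 uM Z-FR-AMC; AMC fluorescence increase over 60 s gives rate.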
# RE007 growth inh = less growth of the S. pombe RE007 Vpr strain | S. pombe RE007 Vpr strain, BacTiter-Glo ATP luminescence, 24 h; control for the full effect not named in the record | Potency, µM (doses to about 92.2 µM), for inactives: top-dose activity change, negative = less growth | 0.21% of 360,000 active; active = well fitted falling curve with a large enough effect; inconclusive = small, poorly fitted or top-dose-only effect; inactive = no such curve, though single readings can be large or run the other way;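 also: % is scaled to controls: 0 for no effect and ±100 for the full control effect; nearly all actives have a fitted effect of over 50% in size; the assay follows cell death caused by Vpr and the record does not say whether a fall means rescue or toxicity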
#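 Fission yeast RE007 carrying one integrated HIV-1 vpr copy, seeded at OD 0.01 in PMG+AL medium with 23 nL pinned compound. Grown 24 h at 30 degrees; viability read by BacTiter-Glo luminescence after 5 min.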
# NS1 inh = blocks influenza NS1 protein function; AID 2326; S. cerevisiae slowed by influenza A NS1, growth recovery by OD600; 0.4% of 270,000 active; Potency, µM (doses to about 46.1 µM), inactives show at the top dose activity, positive = more growth; active means well fitted rising curve with a large enough effect; inconclusive means small, poorly fitted or top-dose-only effect; inactive means no such curve, though single readings can be large or run the other way; also: nearly all actives have a fitted effect of over 50% in size
#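 Read-out: OD600 growth recovery of NS1-expressing budding yeast. Cells grown overnight at 30C in -URA glucose medium, washed, resuspended and diluted 1:100 in 2% galactose assay medium, pH 6.0. Same strain lacking NS1 served as positive control.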
# Cruzain Triton = cruzain (T. cruzi) inhibition with detergent; P25779; purified cruzain, Z-FR-AMC fluorescence, 0.01% Triton; Potency, µM, without a hit: max response, negative = inhibition, hits mostly inhibitors; 0.43% of 200,000 active; AID 1478;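 also: plate controls were neutral wells for no effect and buffer without enzyme for full effect; nearly all actives have a fitted effect of over 40% in size; top concentration of the series not given in the record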
#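 Detergent-containing run (0.01% Triton X-100) in acetate buffer pH 5.5 with 5 mM DTT: enzyme at 1.5 nM final, 15 min compound preincubation at room temperature, then 2 uM Z-FR-AMC substrate. Activity taken as 60 s fluorescence increase at 360/450 nm.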
# LASV entry inh = inhibitors of Lassa virus binding or cell entry; Lassa virus pseudotype entry inhibition, cell reporter; control for the full effect not named in the record; Potency, µM (top dose mostly 37.9 µM), for inactives: at the highest dose activity change, negative = inhibition, hits mostly inhibitors; 1.2% of 300,000 active; active means well fitted inhibition curve with a large enough effect; inconclusive means small, poorly fitted or top-dose-only effect, or effect the other way; inactive means flat fitted curve, though single readings scatter; tested in HEK293 cells; also: % is scaled to controls: 0 for no effect and ±100 for the full control effect; nearly all actives have a fitted effect of over 50% in size; luciferase read-out
# 2A StopGo = lowers the luciferase signal of an FMDV 2A StopGo reporter. human cells with a luciferase reporter of 2A StopGo recoding; control for the full effect not named in the record. Potency, µM (titrated, usually from 57.9 µM), for the others: at the highest dose signal change, negative = less light. 1.2% of 410,000 active; active = well fitted falling curve with a large enough effect; inconclusive = small, poorly fitted or top-dose-only effect; inactive = no such curve, though single readings can be large or run the other way; tested in HEK293T cells; also: % is scaled to controls: 0 for no effect and ±100 for the full control effect; nearly all actives have a fitted effect of over 45% in size; luciferase light after 4 h
# MARV entry inh = blocks Marburg virus binding to or entry into cells. Potency, µM (top dose mostly 37.8 µM), inactives show at the highest dose activity change, negative = inhibition, most hits filed as inhibitors. 1.8% of 300,000 active. Marburg virus pseudotyped entry inhibition, cell reporter; control for the full effect not named in the record; about a third of the inactives were read at about 46 µM; active = well fitted inhibition curve with a large enough effect; inconclusive = small, poorly fitted or top-dose-only effect, or effect the other way; inactive = flat fitted curve, though single readings scatter; tested in HEK293 cells; about a fifth of its hits are not listed in these tables; also: % is scaled to controls: 0 for no effect and ±100 for the full control effect; luciferase read-out
# * hit, by the source's call; ? = inconclusive; . = no result given; & = joins results of further samples; [ ] = dose if it differs, or a comment. Unless noted, calls follow the shape of the dose curve; as a rule, active = well fitted curve in the direction sought with a large enough effect; inconclusive = small, poorly fitted or top-dose-only effect, or another doubt; inactive = no such curve, though single readings can be large; an effect the other way counts as inactive or inconclusive. Potency is read from the fitted curve at half-maximal effect. This is a random part of the collection; 4.7% or so of the library scored in one or more.
SMILES,SARS PLP yeast,Cruzain noTriton,RE007 growth inh,NS1 inh,Cruzain Triton,LASV entry inh,2A StopGo,MARV entry inh
COc1cc(NC(=O)N[C@@H](Cc2ccccc2)C(=O)O)cc(OC)c1,-2%,-4%,7%,?,1.3%,-2%,5%,11%
COc1ccc(NC(=O)CCOc2ccc(C)cc2)c(OC)c1,-2%,.,3%,-8%,.,18%,-11%,?
COc1ccc(COc2cc(-c3cccc(OC)c3)nc3ccc(NC(=O)c4ccc(C)cc4)cc23)cc1,2%,7.9µM*,5%,19%,3.2%&-7.3%,?,-29%,?
Cc1nc2ccccn2c1CN(C)C(=O)C1CCC(=O)N(CCc2cccc(F)c2)C1 (stereo unspecified),3%,.,-1%,3%,.,29%[46.1 µM],17%,2%[46.1 µM]
COc1ccc(-c2cc(-c3ccccc3)nc(N3CCCC3)n2)cc1OC,-5%,16%,-7%,12%,-5.4%,-6%,-12%,-28%
CC1CCCCN1C(=O)COC(=O)CNC(=O)c1ccc(Cl)cc1Cl (stereo unspecified),-4%,.,6%,.,.,-2%[46.1 µM],6%,?
CC(C)NS(=O)(=O)c1ccc(NC(=O)C(C)Oc2ccc(C(=O)c3ccccc3)cc2)cc1 (stereo unspecified),5%,-1%,-12%,?,-3.1%,?,?,?
O=C1CC(N2CCN(c3ccc(F)cc3)CC2)C(=O)N1c1ccccc1 (stereo unspecified),-7%,.,?,.,.,3%,-12%,5%[14.2 µM]
Cc1cc(C)n2nc(C(=O)NCC(=O)Nc3ccc(F)c(F)c3)nc2n1,2%,.,-2%,.,.,-29%,-15%,9%
COc1ccc(NC(=O)CSc2nnc(Cc3ccccc3)c(=O)n2N)cc1,-7%,.,32%,.,.,-11%,5%,-20%
COc1ccccc1C(c1nnnn1Cc1ccco1)N1CCN(c2cccc(C)c2C)CC1 (stereo unspecified),-4%,-7%,22%,?,-7.6%,9.2µM*,-3%,?
COCCn1c(C)cc(C(=O)CSc2nc3ccccc3c(=O)[nH]2)c1C,8%,-11%,-7%,6%,5.3%,?,-1%,?
Cc1cc(C)c(NC(=O)c2cc(=O)c3ccccc3o2)c(C)c1,-5%,0%,-5%,-16%,-5.8%,-19%,-9%,7%
C/C(CC(=O)Nc1ccc2c(c1)OCCO2)=N\NC(=O)COc1ccccc1,-2%,.,-7%,-1%,.,6%,28%,1%[46.1 µM]
Nc1nnc(N2CCCCCC2)s1,0%,-4%,15%,-6%,-5.8%,10%,-9%,-29%
COc1cccc(NC(=O)NCCCSC2CCCCC2)c1,-8%,0%,12%,-13%,-10%,-1%,9%,2%
COc1ccc(/C(O)=C2\C(=O)C(=O)N(CCCN(C)C)C2c2ccccc2F)cc1Cl (stereo unspecified),7%,3%,.,-15%,-1.2%,.,.,-3%
CCCCc1ccc(NC(=S)NCc2cccnc2)cc1,?,-2%,.,-21%,-1.4%,-1%,-8%,-24%
CCC(=O)c1ccc(N2CCCC2)c(F)c1,3%,-17%,-21%,2%,-5.3%,?,41%[activator],18%
O=C(CNCc1cccs1)Nc1ccc(N2CCCCCC2)cc1,2%,.,15%,13%,.,16%[46.1 µM],13%,1%[46.1 µM]
Cc1cccc(NC(=O)c2cc3n(n2)C(C(F)(F)F)CC(c2ccc4c(c2)OCO4)N3)c1 (stereo unspecified),-19%,?,-3%,-133%,-8.8%,?,-18%,?
COc1ccccc1NS(=O)(=O)c1cccc(NC(=O)Cc2cccs2)c1,8%,-1%,-7%,24%,-5.4%,16µM*,0%,-21%
CCOCCCn1cnc2c([nH]c3cc(OC)ccc32)c1=O,0%,4%,7%,-5%,5.1%,0%,52%[activator],5%
CCOc1ccc(C(=O)O/N=C(\N)c2ccc([N+](=O)[O-])cc2)cc1OCC,?,5%,2%,6%,-9.6%,-16%,-20%,-7%
O=C(/C=C/c1ccc(Cl)cc1)NCc1ccco1,-3%,-2%,16%,-20%,-6.2%,6.5µM*,24%,?
COc1ccc(CNC(=O)CSC(=S)N2CCCC2)cc1,10%,.,10%,.,.,11%[46.1 µM],-10%,13%
COCc1ccc(C(=O)N(C)CC2CCCN(CCc3ccc(Cl)cc3)C2)o1 (stereo unspecified),3%,.,10%,10%,.,-9%,-17%,?
S=C(Nc1cc(Cl)cc(Cl)c1)NC1CCN(Cc2ccccc2)CC1,2%,.,-16%,-6%,.,.,-17%,.
COc1cccc(/C=N/NC(=O)C(=O)N2CCCC2)c1O,?,-2%,-5%,-165%,-1.8%,3%,.,2%
O=C(CSc1nnnn1-c1ccccc1)NC(=O)NCc1ccco1,-5%,-5%,5%,9%,2.5%,?,0%,24%
CC(C)C(NS(=O)(=O)c1ccccc1)C(=O)N1CCCC1 (stereo unspecified),-11%,.,6%,14%,.,-10%,5%,-5%
CCCCNC(=O)N(O)C1N(/N=C/c2ccccc2F)C(=S)SC1(C)C (stereo unspecified),0%,.,-6%,3%,.,-3%,81%[activator],.
CC1CN(C(=O)COC(=O)c2cccc(S(=O)(=O)N3CCc4ccccc43)c2)CC(C)O1 (stereo unspecified),1%,.,2%,.,.,?,-3%,-2%[46.1 µM]
CC(=O)N1N=C(c2ccccc2)CC1c1ccccc1 (stereo unspecified),-5%,.,-12%,-21%,.,?,-11%,15%
COc1ccc(-c2csc(N3C(=N)SCC3=O)n2)cc1,3%,?,0%,5%,2.8%,-21%,34%[activator],-20%
O=C(O)CCN1C(=O)C2C3c4ccccc4C(c4ccccc43)[C@@H]2C1=O (stereo partly specified),0%,.,19%,-3%,.,.,-7%,.
COc1cc2cc(C(c3nnnn3C3CCCC3)N3CCCCCC3)c(=O)[nH]c2cc1OC (stereo unspecified),-3%,?,-4%,-31%,-8.4%,1%,7%,-10%
COc1ccc(OC)c(C(=O)NC(CC(N)=O)c2ccc(NCC3CC3)c([N+](=O)[O-])c2)c1 (stereo unspecified),-2%,.,-5%,11%,.,.,3%,.
CSC1=NCCN1C(=O)c1c(F)cccc1F,7%,-5%,2%,?,3.8%,2%,6%,26%
Cc1cc(NS(=O)(=O)c2ccc(NC(=O)c3cccc(OC(F)F)c3)cc2)nc(C)n1,3%,.,5%,-4%,.,1%[46.1 µM],40%[activator],14%[46.1 µM]
CCOc1ccccc1CNC(=O)c1cnc2sc(N(CC)CC)nn2c1=O,.,-6%,.,.,-2.7%,-27%[46.1 µM],-24%,.
O=C(Cc1ccccc1F)NC1CCCc2ccccc21 (stereo unspecified),0%,.,-10%,3%,.,1%[46.1 µM],26%,4%[46.1 µM]
Cc1ccc(-c2ccc(=O)n(CC(=O)NCc3ccco3)n2)cc1,?,-5%,1%,11%,0.1%,2%,-13%,1%&1%
COC(=O)c1nc2n(n1)C(c1ccccc1OC)C1=C(CCCC1=O)N2 (stereo unspecified),1%,-14%,15%,-3%,-17%,0%,-21%,1%
Cc1ccccc1NC(=O)CN(C)S(=O)(=O)c1ccc2c(c1)n(C)c(=O)c(=O)n2C,-1%,.,-8%,11%,.,.,-10%,.
CN(CC(=O)Oc1ccc(-c2nnco2)cc1)S(=O)(=O)c1ccc(F)cc1,-25%,.,?,.,.,-13%,-18%,0%
Cc1ccc2c(c1)C1CN(C)CCC1N2C(=O)c1ccccc1NS(=O)(=O)c1cccc(C(F)(F)F)c1 (stereo unspecified),-31%,-1%,6%,-7%,-2.6%,?,24%,?
O=C(CCNC(=O)c1ccc([N+](=O)[O-])cc1)Nc1ccccc1N1CCCCC1,0%,.,3%,.,.,0%,-18%,-25%[46.1 µM]
O=C(COc1ccccc1F)Nc1ccc2nc(SCC(=O)N3CCOCC3)sc2c1,.,?,.,.,-13%,-21%[46.1 µM],?,?
Cc1cc(C)c(NC(=O)CCC(=O)N2Cc3ccccc3Oc3ncccc32)c(C)c1,.,27%,.,.,-1.5%,11%[46.1 µM],-12%,.
FC(F)(F)c1cccc(Cn2nnnc2-c2cc(Cl)cc(Cl)c2)c1,-8%,-3%,-26%,-58%,-10%,6%,9%,?
Cc1cccc(Cn2cccc(C(=O)Nc3ccc(F)cc3F)c2=O)c1,.,8%,.,.,-1.2%,2%[46.1 µM],0%,.
CN1CCN(S(=O)(=O)c2ccc(Oc3ccc(F)cc3Br)nc2)CC1,0%,.,-4%,-1%,.,-3%,-22%,-1%[46.1 µM]
COc1ccc(C(C)=O)cc1CN1C(=O)NC(c2ccccc2)(c2ccccc2)C1=O,0%,.,-1%,14%,.,.,-20%,-26%[46.1 µM]
O=C(Nc1cc(S(=O)(=O)N2CCOCC2)ccc1Cl)C1CCC1,2%,.,11%,.,.,3%,-3%,4%
Cn1nccc1C(=O)N/N=C/c1ccccc1[N+](=O)[O-],0%,.,8%,4%,.,.,64%[activator],.
Cc1nc2sc(C(N)=O)c(N)c2c(C)c1CC(=O)c1ccccc1,-4%,.,10%,.,.,-20%[46.1 µM],25%,0%[46.1 µM]
COC(=O)C1=NN(C(=O)c2cccc(Cl)c2)C(O)(C(C)(C)C)C1 (stereo unspecified),18%,4%,.,-30%,-0.7%,17%,-8%,1%
CCOC(=O)CSc1nnc(NCC(=O)OC(C)C)c(=O)[nH]1,-1%,-6%,12%,6%,2.6%,-14%,-14%,7%&-2%
C=CCn1c(N2CCCC2)nc2c1c(=O)n(C)c(=O)n2C,11%,.,-27%,4%,.,-2%,-21%,-8%

# Some entries already given, limited to 2A StopGo:
Compound,2A StopGo
Cc1nc2sc(C(N)=O)c(N)c2c(C)c1CC(=O)c1ccccc1,25%
COC(=O)C1=NN(C(=O)c2cccc(Cl)c2)C(O)(C(C)(C)C)C1 (stereo unspecified),-8%

# Bioassay records deposited in PubChem BioAssay by National Center for Advancing Translational Sciences (NCATS).
